Methyltransferases – Primary Screen for Target Class Profiling of Small Molecule Inhibitors of Methyltransferases; purified enzyme, MTase-Glo SAH luminescence; stronger effect = lower value; calls only at 40 µM; hit rate 3.9% among 25,000; active = -50% or lower on at least one of six enzymes; inconclusive = the cases between; inactive = as a rule above -30% on all six;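 further: enzymes were COMT GAMT GNMT HNMT NNMT and PNMT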
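Each enzyme was reacted with SAM and its substrate, with compounds tested once at 40 uM; SAH formed was read by MTase-Glo luminescence.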
Calls only; i = inactive; ? = inconclusive; + = active, no number. On the % scale 0 is the no-effect control and ±100 the full control effect.

item | SMILES | Methyltransferases
1 | CC(=O)OCC(Cc1ccccc1)NC(=O)C(Cc1ccccc1)NC(=O)c1ccccc1 (stereo unspecified) | ?
2 | Cc1cnc(-c2ccccc2)n1CCNC(=O)CCC1CCCC1 | i
3 | c1ccc2c(c1)CCC[C@H]2Nc1nc2ccccc2[nH]1 | i
4 | Cc1ccc(CCN2C(=O)c3cc4ccccc4n3CC2(C)C(=O)NC2CCCC2)cc1 (stereo unspecified) | i
5 | CCOc1ccccc1CNC(=O)Cn1ccc2cc(S(=O)(=O)N3CCC(C)CC3)ccc21 | i
6 | Cc1cc(N2C(=O)Cn3cccc3C2C(=O)NC2CCCC2)ccc1Br (stereo unspecified) | i
7 | Cc1noc(C)c1S(=O)(=O)NCCC1CN(c2cnn(C)c(=O)c2)CCO1 (stereo unspecified) | i
8 | COc1cccc(CCC(=O)N2CCCCC2c2nc(-c3ccncc3)n[nH]2)c1 (stereo unspecified) | i
9 | Cc1nn(-c2ccccc2)c2c1C(C(C)C)N(C1CN([S+](C)(=O)[O-])C1)C2=O (stereo unspecified) | i
10 | Cc1ccc(C)c(NC(=O)CN2C(=O)C(c3ccccc3)=NC23CCCC3)c1 | i
11 | COc1cccc(Nc2cc3c(cn2)CN(Cc2cccnc2)CCN3)c1 | +
12 | CC(C)Oc1ccc(CN2C(=O)c3ccc(-c4ccco4)n3CC2(C)C(=O)NC2CCCC2)cc1 (stereo unspecified) | i
13 | CCc1nccn1Cc1nnc(C2CC(N)C2)n1CCOC (stereo unspecified) | i
14 | O=C(/C=C/c1cccnc1)c1ccncc1 | ?
15 | CCOc1ccc(CN2C(=O)c3ccc(-c4ccco4)n3CC2(C)C(=O)NC2CCCCC2)cc1 (stereo unspecified) | i
16 | COc1ccccc1CNC(=O)C1(C)Cn2c(cc3ccccc32)C(=O)N1CCCc1ccccc1 (stereo unspecified) | i
17 | CCN(CC)CCOC(=O)c1cc(Cl)c(N)cc1OC | i
18 | O=C(O)c1cc(C(F)(F)F)ccc1N1CC[C@H](OCc2ccccn2)C1 | i
19 | COc1ccc(Cl)cc1NC(=O)N1CCn2c(C)ccc2C1C(C)C (stereo unspecified) | i
20 | CCOCCCNC(=O)c1ccc2c(=O)nc3c(-c4ccccc4)n[nH]n3c2c1 | i
21 | CCCn1c(=O)c2ccccc2n2c(=O)n(CC(=O)Nc3ccccc3OC)nc12 | i
22 | COc1ccc(CN2C(=O)c3ccc(-c4ccco4)n3CC2(C)C(=O)NC2CCCCC2)cc1OC (stereo unspecified) | i
23 | CC1CCCCC1NC(=O)C1(C)Cn2c(nc3ccccc32)C(=O)N1CCc1ccc(Cl)cc1 (stereo unspecified) | i
24 | CC(=O)N1CC[C@H](c2nc3ccc(C#N)cc3[nH]2)C1 | i
25 | COc1cccc(-c2ccc(C(=O)NCCN[S+](=O)([O-])c3cccs3)cc2)c1 | i
26 | Cc1ccc(Cn2c(=O)c3ccccc3n3c(=O)n(CC(=O)NCc4ccccc4)nc23)cc1 | i
27 | CCc1cc2c(cc3n2CC(C)(C(=O)NC2CCC(C)CC2)N(Cc2ccc(F)cc2)C3=O)s1 (stereo unspecified) | i
28 | CN1CCCC(c2nc(CCOCC3CCCC3)no2)C1 (stereo unspecified) | i
29 | CN1C(=O)c2cc(NC(=O)c3ccccc3F)ccc2N2CCN=C12 | i
30 | Cc1cccc(/C=C/c2ccccc2)n1 | ?

Next part; the last two above are carried over.
item | SMILES | Methyltransferases
29 | CN1C(=O)c2cc(NC(=O)c3ccccc3F)ccc2N2CCN=C12 | i
30 | Cc1cccc(/C=C/c2ccccc2)n1 | ?
31 | CC1(C(=O)NC2CCCCCC2)Cn2nc(-c3cccs3)cc2C(=O)N1Cc1ccc(F)cc1 (stereo unspecified) | i
32 | CCc1noc([C@@H]2CC(F)(F)CN2C(=O)c2cocn2)n1 | i
33 | CCN(CC)C(=O)[C@@H]1CCC[C@@H](NC2CCOCC2)CN(C)C(=O)C1 | i
34 | FC(F)(F)c1ccc(-c2noc([C@@H]3Cc4nc[nH]c4CN3Cc3cc4ccccc4o3)n2)cc1 | i
35 | Cc1cc(=O)oc2cc(CN(C)CC(C)N3CCOCC3)ccc12 (stereo unspecified) | i
36 | C=CCNC(=O)N[C@H]1C[C@H]2C(=O)Nc3ccc(/C=C/c4ccc(OC)cc4)cc3C(=O)N2C1 | i
37 | Cc1cc(N2CCN([C@@H]3CN[C@H](C(=O)N4CCSC4)C3)CC2)n(-c2ccccc2)n1 | ?
38 | COc1cc(/C=C/C(=O)OC(C)(C)C(OC2OC(CO)C(O)C(O)C2O)C(=O)OCc2ccc(OC3OC(CO)C(O)C(O)C3O)cc2)ccc1O (stereo unspecified) | ?
39 | CCc1ccccc1NC(=O)N1C[C@@H](F)C[C@H]1C(=O)N1CCc2ccccc2C1 | i
40 | O=C(Cc1cccc(Cl)c1)N1CCC2(CN[S+](=O)([O-])c3cccnc3O2)C1 (stereo unspecified) | i
41 | CC(C(=O)NCc1ccccc1Cl)n1ccc2cc(S(=O)(=O)N3CCCCC3)ccc21 (stereo unspecified) | i
42 | O=C1c2ccccc2-c2c(NCCc3ccccc3)c(=O)[nH]c3cccc1c23 | ?
43 | COc1ccc(-c2n[nH]n3c2nc(=O)c2ccc(C(=O)NC4CCCCC4)cc23)cc1 | i
44 | COc1ccc(-c2nn(-c3ccccc3C)cc2CN2C[C@@H](C)O[C@@H](C)C2)cc1F | i
45 | CCCCN1C(=O)c2cc(C(=O)Nc3ccccc3Br)nn2CC1(C)C(=O)NC1CCCC1 (stereo unspecified) | i
46 | CC(C)N1CCN(C(=O)C23CCCC=C2N(c2ccccc2)C(=O)CC3)CC1 (stereo unspecified) | i
47 | N#C[C@@H]1C[C@H](F)CN1C(=O)CNC1[C@H]2CN(C(=O)c3ccc(F)cc3)C[C@@H]12 (stereo partly specified) | i
48 | CCOC(=O)c1cc2n(n1)CC(C)(C(=O)NC1CCCCCC1)N(Cc1ccc(OC)cc1)C2=O (stereo unspecified) | i
49 | O=[N+]([O-])c1cn2c(n1)OCC(OCc1ccc(OC(F)(F)F)cc1)C2 (stereo unspecified) | ?
50 | CC1CCCC(C)N1CCCN1C(=O)c2cc3occc3n2CC1(C)C(=O)NC1CCCCCCC1 (stereo unspecified) | i
51 | Cc1ccc(Cn2c(=O)c3ccc(C(=O)NC(C)C)cc3n3c(=O)n(Cc4cccc(C)c4)nc23)cc1 | i
52 | CCN(CC)CC(=O)N1CCC(Oc2ccccc2C)(C(=O)O)CC1 | i
53 | O=C(NC1CCCCC1)c1ccc2c(=O)n(Cc3ccccc3)c3n[nH]c(=O)n3c2c1 | i
54 | CN1C[C@H]2CN(C(=O)c3ccc(C(F)(F)F)cc3)CCN2C1=O | i
55 | CCOCCCNC(=O)C1c2c(n(C)c3ccccc23)SCC(=O)N1CCc1ccsc1 (stereo unspecified) | i
56 | C=C(CCO[C@@H]1O[C@H](CO)[C@@H](O)[C@H](O)[C@H]1O)C(=O)O | i
57 | Cc1noc(C)c1Cc1ccc(C(=O)N2CC(N(C)Cc3cccnc3)C2)o1 | i
58 | Cn1c2c(c3ccccc31)C(C(=O)NCc1ccccc1)N(c1ccccc1Cl)C(=O)CS2 (stereo unspecified) | i
59 | COc1ccc(C[C@H](NC(=O)[C@H](C)NC(=O)CN2CCOCC2)C(=O)N[C@@H](Cc2ccccc2)C(=O)[C@@]2(C)CO2)cc1 | ?
60 | Cn1c(=O)c2ccc(C(=O)NC3CCCC3)cc2n2c(=O)n(Cc3ccc(N4CCCC4=O)cc3)nc12 | i
61 | Clc1ccc2c(c1)N=C(N1CCNCC1)c1ccccc1N2 | ?
62 | CCCCNC(=O)c1cc2n(n1)CC(C)(C(=O)NCCC(C)C)N(C)C2=O (stereo unspecified) | i
63 | CCOC(=O)C1CCN(S(=O)(=O)c2ccc(Cl)c(-c3nnc(-c4ccccc4)o3)c2)CC1 | i
64 | COC1CCN(CC2CCCCCN2C(=O)NCc2ccc(F)cc2)CC1 (stereo unspecified) | i
65 | CC(C)CCn1c(=O)c2ccccc2n2c(SCC(=O)NCc3ccccc3Cl)nnc12 | i
66 | COc1ccc(Cl)cc1NC(=O)N1CCn2cccc2C1C(C)C (stereo unspecified) | i
67 | CCn1cc(CN2CCCC23CCN(c2cc(C)nc4ccccc24)CC3)c(C)n1 | +
68 | COC(=O)C1=COC(OC2OC(CO)C(O)C(O)C2O)C2C(C)CC(=O)C12O (stereo unspecified) | i
69 | O=C(O)CCCC(=O)N[C@H]1CO[C@H]2[C@@H]1OC[C@@H]2Nc1nccc(-c2ccc3c(c2)OCO3)n1 | i
70 | Cc1ccc(Cn2c(=O)c3ccccc3n3c(SCC(=O)Nc4ccc(C)cc4C)nnc23)cc1 | i
71 | COc1ccccc1OCCN1CC(COc2cccc3[nH]c4ccccc4c23)OCC1=O (stereo unspecified) | i
72 | CC1(C)[C@H]2CC=C(CN3CCC(CCC(=O)N4CCN(c5ccccc5)CC4)CC3)[C@@H]1C2 | i
73 | CC(C)CCNS(=O)(=O)c1ccc2[nH]c(=O)[nH]c2c1 | i
74 | COc1ccc(CCNC(=O)CC(c2cccc(F)c2)c2cn(C)c3ccccc23)cc1OC (stereo unspecified) | i
75 | C[C@@]1(O)CCN(C2CCN(c3ccc(F)cc3)CC2)C[C@@H]1O | i
76 | CN(C)c1cccc(C(=O)NC2CCN(c3cc(-c4cccs4)[nH]n3)C2)c1 (stereo unspecified) | i
77 | CCN(CC)CCCN1C(=O)c2cc3sccc3n2CC1(C)C(=O)NC1CCCCCC1 (stereo unspecified) | i
78 | NCc1c[nH]c(=S)n1[C@@H]1CCc2c(F)cc(F)cc2C1 | i
79 | CC(C)Cn1c(=O)c2ccccc2n2c(CCC(=O)NCCCN3CCN(c4ccccc4F)CC3)nnc12 | i
80 | COc1ccc(C(=O)Nc2cnc3c(c2)CCC3)cc1 | i
81 | CC1CCC(NC(=O)C2(C)Cc3ccccc3C(=O)N2Cc2ccc(Cl)cc2)CC1 (stereo unspecified) | i
82 | CCC(C)NC(=O)c1ccc2c(=O)n(C(C)C)c3nn(CC(=O)Nc4ccc(C)cc4)c(=O)n3c2c1 (stereo unspecified) | i
83 | CC(/C=C/[C@]1(O)[C@@]2(C)CO[C@@]1(C)C[C@@H](O)C2)=C\C(=O)O[C@@H]1O[C@H](CO)[C@@H](O)[C@H](O)[C@H]1O | i
84 | CC1=CC23[C@H](C=C(C(=O)O)[C@@H]2COC(=O)[C@]3(O)CO)[C@@H]1C (stereo partly specified) | i
85 | CN(c1ccccc1)S(=O)(=O)C1CCS(=O)(=O)C1 (stereo unspecified) | i
86 | CCNC(=O)CC1COCCN1C(=O)c1csc(-c2cccs2)n1 (stereo unspecified) | i
87 | C=CC1(C)C=C2C(O)CC3C(C)(C(=O)O)CCCC3(C)C2CC1 (stereo unspecified) | i
88 | O=S(=O)(Nc1cccc(F)c1)c1cccc(-c2nc(-c3ccccc3)no2)c1 | i
89 | CC1(C(=O)NC2CCCCCC2)Cn2nc(C3CC3)cc2C(=O)N1Cc1ccc2c(c1)OCO2 (stereo unspecified) | i
90 | Cc1ccc(C2c3cccn3-c3sc4c(c3CN2C(=O)NC(C)C)CCCC4)cc1 (stereo unspecified) | i

Along the list, quoted from above:
Entries 69 to 76 in Methyltransferases, in turn: i, i, i, i, i, i, i, i

(continued)
item | SMILES | Methyltransferases
91 | C=C1C(=O)O[C@H]2C3=C(C)CCC[C@]3(C)C(=O)C[C@@H]12 | i
92 | CC(C)c1nccn1Cc1cc(C(=O)N(C)Cc2ccccc2Cl)n[nH]1 | i
93 | O=C(CCc1nnc2n(Cc3ccccc3)c(=O)c3ccccc3n12)N1CCN(c2ccc(F)cc2)CC1 | i
94 | CC(C)NC(=O)c1ccc2c(=O)n(Cc3ccccc3)c3nn(CC(=O)Nc4ccccc4)c(=O)n3c2c1 | i
95 | Cc1nc2c([nH]1)CCN(C(=O)c1ccc(NC(=O)c3ccccc3-c3ccccc3)cc1)c1ccccc1-2 | ?
96 | COc1ccc(Cc2ccc(NC(N)=O)cc2)cc1-c1cccc(Cl)c1 | i
97 | CCCN1C(=O)c2c(C(=O)NCc3ccc(F)cc3)ncn2CC1(C)C(=O)NCCC(C)C (stereo unspecified) | i
98 | Cc1ccccc1Cn1nc2n(Cc3ccc(F)cc3)c(=O)c3ccccc3n2c1=O | i
99 | CCN(CC)c1ccc2c(O)c(C=Nc3ccc(CC(=O)O)c(-c4c5c(nc6ccccc46)CCC(C(=O)NN)C5)c3)c(=O)oc2c1 (stereo unspecified) | +
100 | CC1CCCC(NC(=O)C2(C)Cn3c(cc4sccc43)C(=O)N2Cc2ccccc2F)C1C (stereo unspecified) | i
101 | Cc1ccccc1N(C)C1CN(Cc2ccc(C#N)cc2)C1 | i
102 | Cc1sc2ccn(CC(C)C)c(=O)c2c1C(=O)N1CCCCC1 | i
103 | Cc1nc(N2CCCCC2)n(CC(=O)Nc2ccc(Br)cc2)c(=O)c1C | i
104 | COc1cccc(C2c3cccn3-c3sc4c(c3CN2C(=O)Nc2cccc(C)c2)CCCC4)c1 (stereo unspecified) | i
105 | CC(C)Cn1c(=O)c2ccccc2n2c(SCC(=O)NCc3ccc(Cl)cc3)nnc12 | i
106 | CC(=O)N1CCN(CC[C@H]2CN(C(=O)c3ccnc(Cl)c3)CC[C@H]2CC(=O)O)CC1 | i
107 | Cc1ccc(O[C@H]2COCC[C@H]2NC(=O)c2ccc(-c3ccn[nH]3)cc2)cn1 | i

Reformatted with each value named: entries from further up
93	O=C(CCc1nnc2n(Cc3ccccc3)c(=O)c3ccccc3n12)N1CCN(c2ccc(F)cc2)CC1
- Methyltransferases: i

94	CC(C)NC(=O)c1ccc2c(=O)n(Cc3ccccc3)c3nn(CC(=O)Nc4ccccc4)c(=O)n3c2c1
- Methyltransferases: i

95	Cc1nc2c([nH]1)CCN(C(=O)c1ccc(NC(=O)c3ccccc3-c3ccccc3)cc1)c1ccccc1-2
- Methyltransferases: ?

96	COc1ccc(Cc2ccc(NC(N)=O)cc2)cc1-c1cccc(Cl)c1
- Methyltransferases: i

The list is partial, so the mix of outcomes need not match the whole.
